# gsp antagonist = antagonizes gsp, the McCune-Albright syndrome mutation; 340,000 tested, 0.4% active; Potency, µM (titrated, usually from 76.9 µM), for the others: at the highest dose activity change, negative = inhibition, usual class: inhibitors; gsp-mutant cells, cAMP HTRF, 30 min; control for the full effect not named in the record; active = falling curve of any shape with a large fitted effect; inconclusive = falling curve, mostly with a smaller effect; inactive = flat or rising curve; cell line not stated here;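 further: intracellular cAMP measured with PDE inhibitor Ro 20-1724 present during compound exposure; potency means the concentration at half of the fitted maximal effect; on the % scale 0 is the no-effect control and ±100 the full control effect; nearly all actives have a fitted effect of over 65% in size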
#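 HTRF cAMP measurement after 30 min RT detection following 30 min, 37C compound treatment alongside […] (added as 300 uM solution) in G418-selected cells seeded at 2000/well and grown 16–24 h.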
# Six1-Eya2 inh = blocks human Six1 binding to Eya2 | AID 651725 | activity change, % (no concentration beside the values) | 360,000 tested, 0.56% active | AlphaScreen GST-Six1/His-Eya2 binding, biochemical; stronger effect = lower value; control for the full effect not named in the record; in the data active = activity change below about -65%; inconclusive = about -30% to -65%; inactive = above about -30%; further: on the % scale 0 is the no-effect control and ±100 the full control effect; compound concentration not given in the record
# Target sequence (O00167 whole entry, looked up): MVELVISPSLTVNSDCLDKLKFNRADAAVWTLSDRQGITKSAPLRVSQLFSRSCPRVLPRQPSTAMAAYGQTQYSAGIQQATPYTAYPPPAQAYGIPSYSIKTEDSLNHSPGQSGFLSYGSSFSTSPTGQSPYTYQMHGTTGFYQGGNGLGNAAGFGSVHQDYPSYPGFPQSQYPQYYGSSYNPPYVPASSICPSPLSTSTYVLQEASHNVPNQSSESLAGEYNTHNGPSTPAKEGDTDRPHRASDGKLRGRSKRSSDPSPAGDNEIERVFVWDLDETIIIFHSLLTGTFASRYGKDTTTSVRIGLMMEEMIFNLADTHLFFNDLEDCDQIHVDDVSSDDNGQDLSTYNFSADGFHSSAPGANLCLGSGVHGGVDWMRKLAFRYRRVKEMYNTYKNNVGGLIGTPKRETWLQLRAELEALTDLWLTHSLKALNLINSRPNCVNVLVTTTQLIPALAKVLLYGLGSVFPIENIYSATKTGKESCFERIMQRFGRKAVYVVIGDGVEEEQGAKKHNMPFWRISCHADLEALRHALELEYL
# Target sequence (Q15475 whole entry, looked up): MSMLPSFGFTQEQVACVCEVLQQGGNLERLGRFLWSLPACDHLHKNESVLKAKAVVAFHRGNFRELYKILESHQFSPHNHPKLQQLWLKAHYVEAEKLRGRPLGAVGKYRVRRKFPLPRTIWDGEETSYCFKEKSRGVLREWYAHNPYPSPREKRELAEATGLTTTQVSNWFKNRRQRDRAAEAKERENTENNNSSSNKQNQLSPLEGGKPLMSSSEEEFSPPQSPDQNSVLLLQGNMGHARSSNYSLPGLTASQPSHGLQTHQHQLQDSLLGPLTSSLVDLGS
#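 AlphaScreen luminescence read after one hour at 37 °C in darkness. Pin-transferred compounds met GST-Six1 and His-Eya2 protein (5X stock 250 nM/500 nM) plus glutathione donor and Ni-chelate acceptor beads (5X, 50 ug/mL).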
# D2 PAM = positive allosteric modulators of human D2 dopamine receptor; DiscoveRx D2 beta-arrestin cells, luminescence, 90 min; 100% = 57 uM dopamine signal; potentiation, % (no concentration beside the values); P14416; 360,000 tested, 0.23% active; active = potentiation of 50% or more; inconclusive = 30% to 50%; inactive = 30% or less;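 further: compound concentration not given in the record; tested on top of an EC20 dose of dopamine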
#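 PathHunter beta-arrestin assay in DiscoveRx D2 cells. Compounds were added with an EC20 of dopamine (50 nM final) for 90 min at 37 deg C. Luminescence was read 1 h after detection reagent, with 57 uM dopamine as the EC100 control.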
# CtBP-E1A inh = blocks the CtBP interaction with E1A | AlphaScreen GST-E1A/His-CtBP binding, 1536-well; stronger effect = lower value; control for the full effect not named in the record | activity change, % (test concentration not listed) | 340,000 tested, 0.49% active | AID 651724; in the data active means activity change below about -65%; inconclusive means about -30% to -65%; inactive means above about -30%; further: on the % scale 0 is the no-effect control and ±100 the full control effect; compound concentration not given in the record
#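 GST-E1A and His-tagged CtBP (125 nM each as 5X stock) were preincubated with pin-transferred compound for 2 h at 37 °C in the dark, then glutathione donor and nickel acceptor beads were added for 1 h before AlphaScreen reading.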
# D2 ag = activates the human D2 dopamine receptor. 360,000 tested, 0.084% active. activation, % (test concentration not listed). P14416. DiscoveRx PathHunter D2 beta-arrestin, luminescence, 90 min; 100% = 57 uM dopamine signal; in the data active = activation above about 40%; inconclusive = about 15% to 40%; inactive = below about 15%; further: compound concentration not given in the record; the text of the record calls up to 30% inactive
#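 Agonist mode: compounds alone added to overnight-plated D2 PathHunter cells for 90 min at 37 C, with 57 uM final dopamine (EC100) defining full response. Beta-arrestin recruitment detected by chemiluminescent reagent, read after 1 h at ambient temperature.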
# gsp ag = gsp mutant agonism. 340,000 tested, 0.13% active. gsp mutant cells, cAMP HTRF, 30 min; control for the full effect not named in the record. Potency, µM (series often up to 76.9 µM), without a hit: at the highest dose activation (cAMP increase), most hits filed as activators; active = well fitted activation curve with a large enough effect; inconclusive = small, poorly fitted or top-dose-only effect, or another doubt; inactive = no such curve, though single readings can be large or run the other way; cell line not stated here;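 further: phosphodiesterase inhibitor Ro 20-1724 added with compounds to block cAMP breakdown; potency means the concentration at half of the fitted maximal effect; nearly all actives have a fitted effect of over 60% in size; about a fifth of the inactives were tested at one dose only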
#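 Cells in DMEM/10% FBS with G418 were pretreated with compounds in DMSO plus […] (300 uM stock) for 30 min at 37C. cAMP was measured by HTRF (cAMP-d2 plus anti-cAMP antibody-K) after 30 min at room temperature.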
# * hit, by the source's call; ? = inconclusive; nt = not tested or not shown; [ ] = dose if it differs, or a comment.
# Screens in order – gsp antagonist	Six1-Eya2 inh	D2 PAM	CtBP-E1A inh	D2 ag	gsp ag
Cc1ccc(C(=O)NCC(=O)OC(C)C(=O)NCCC2=CCCCC2)cc1C (stereo not drawn)
 : 10%	13	-16	2	3.4	-12%
CN(C(=O)COC(=O)c1ccc(-c2ccc(O)cc2)cc1)C1CCS(=O)(=O)C1 (stereo not drawn)
 : 6%	8	-4	3	0.9	?
O=C(Nc1ccc2c(c1)CCCN2C(=O)c1ccco1)c1cc([N+](=O)[O-])ccc1Cl
 : -4%	-6	56*	-15	6.7	-51%[inhibitor]
O=C1C2C3c4ccccc4C(c4ccccc43)C2C(=O)N1Cc1cccnc1 (stereo not drawn)
 : -6%	4	12	-2	-2.2	1%
O=C(COC(=O)C1CCN(S(=O)(=O)c2cccc3cccnc23)CC1)c1ccc(F)cc1
 : -8%	22	-42	0	-5.7	-23%
CCN(CC(=O)NCc1ccc(Cl)cc1)C(=O)COc1cccc(C(F)(F)F)c1
 : -3%	-1	-12	8	-4.3	0%
O=C(Nc1nc2c(Cl)cccc2s1)c1ccc([N+](=O)[O-])o1
 : ?	15	9	11	8.2	-15%[15.4 µM]
CCN1C(=O)c2ccccc2S(=O)c2ccc(C(=O)N3CCCCCC3)cc21 (stereo not drawn)
 : -1%	3	-3	-2	-0.6	-17%
O=C(c1ccc(F)cc1)c1ccc(-c2ccc(F)cc2)nc1
 : 8%	3	-1	13	-7.2	?
COc1cc(C)c(CN2CCN(C(C)C(=O)NC(C)c3ccccc3)CC2)cc1OC (stereo not drawn)
 : -2%	0	-12	-3	-3.7	3%
NC(=O)/C(=C\c1ccncc1)c1cccc2ccccc12
 : 5%	-2	2	nt	1.3	-15%
Cc1ccc2nc(N3CCN(Cc4nnnn4Cc4ccccc4)CC3)c(C#N)cc2c1
 : -1%	13	-11	16	-0.9	29%
O=C(Nc1ccccn1)c1onc2c1CCCC2
 : 3%	14	-12	-6	-2.1	12%
Nc1c(N(CCC2=CCCCC2)C(=O)COc2ccc(F)cc2Cl)c(=O)[nH]c(=O)n1Cc1ccccc1
 : 1%	6	-4	5	5.8	24%
O=C(NCc1ccc(Cl)cc1)N1CCN(S(=O)(=O)c2ccccc2)CC1
 : -13%	21	-1	-3	-0.9	19%
O=C(Oc1cccc(-n2cnnn2)c1)c1ccccc1Cl
 : 4%	-4	-8	6	-4.4	5%[15.4 µM]
Cc1cccc(C)c1NC(=O)CNC(=O)C12CC3CC(CC(O)(C3)C1)C2
 : 9%	6	-3	-20	1.4	11%
O=C(NC(=S)N(Cc1ccccc1)Cc1ccccc1)C1CCCCC1
 : -9%	3	-22	5	-0.3	-2%
COc1cc2nc(Nc3ccc(C)c(C)c3)nc(N)c2cc1OC
 : 16%	-23	-12	-10	-2.9	-71%[inhibitor]
COCC(C)N1CCC(n2nccc2NC(=O)CCCc2ccccc2)CC1 (stereo not drawn)
 : 5%	6	-21	0	0.7	?

# An excerpt of these results, bar-delimited:
mol | gsp antagonist | Six1-Eya2 inh | D2 PAM | CtBP-E1A inh | D2 ag | gsp ag
O=C(COC(=O)C1CCN(S(=O)(=O)c2cccc3cccnc23)CC1)c1ccc(F)cc1 | -8% | 22 | -42 | 0 | -5.7 | -23%
O=C(c1ccc(F)cc1)c1ccc(-c2ccc(F)cc2)nc1 | 8% | 3 | -1 | 13 | -7.2 | ?

# Other results follow:
# Screens in order – gsp antagonist	Six1-Eya2 inh	D2 PAM	CtBP-E1A inh	D2 ag	gsp ag
O=C(COc1ccc(Cl)cc1)NCCSCc1cccc(Cl)c1
 : -2%	6	-4	5	-3.4	?
COc1cc2[nH]c(=S)nc(NCCC(C)C)c2cc1OC
 : 9%	-87*	-5	-89*	-4.5	20%
CC1Cc2ccccc2N1CC(=O)Nc1ccc(S(N)(=O)=O)cc1 (stereo not drawn)
 : 5%	-6	-3	-8	-3.6	-23%[15.4 µM]
CC1=[N+]([O-])C(C)(C)C(c2ccc(Br)cc2)=[N+]1[O-]
 : 9%	6	-4	-2	-1.7	-6%
CC(=O)N1CCCN(Cc2cn(-c3cc(C)ccc3C)nc2-c2ccccc2)CC1
 : -16%	-5	-7	1	-1.6	27%
Cc1c(C(=O)OCC(=O)Nc2ccc(S(N)(=O)=O)cc2)oc2c1ccc1ccccc12
 : -18%	4	-6	1	-2.0	19%[15.4 µM]
COc1ccc2cc(C(=O)NCCO)sc(=O)c2c1OC
 : 4%	-1	17	4	0.0	-32%
Cc1cc(C)n2[nH]c(=O)c(N=Nc3ccc(S(N)(=O)=O)cc3)c2n1
 : -46%	-4	-9	nt	-3.1	-13%[15.4 µM]
O=C1CCC(=O)N(c2ccccc2)N1
 : 3%	3	-1	7	-1.1	-56%[inhibitor][15.4 µM]
COc1cccc(-n2cc(CNCc3c(C(=O)N(C)C)nc4ccc(Cl)cn34)cn2)c1
 : -15%	0	-22	0	-2.6	10%
COc1ccc2c(c1)c(C(=O)N/N=C/c1cccc(O)c1)c(C)n2C
 : -4%	-13	4	11	0.0	-3%[15.4 µM]
Cc1nc([N+](=O)[O-])c(SCC(O)CCl)n1Cc1ccc(Cl)cc1 (stereo not drawn)
 : -4%	4	-3	nt	5.7	39%[15.4 µM]
CC(=O)N(C)c1ccc(OCC(O)Cn2c3ccc(Cl)cc3c3cc(Cl)ccc32)cc1 (stereo not drawn)
 : -11%	-12	24	-5	0.2	-19%
COC(=O)c1[nH]c2cc(C)ccc2c1NC(=O)CN1CCN(C(=O)c2ccco2)CC1
 : 2%	-4	-15	8	11	0%
O=C(Nc1ccccc1N1CCCC1)c1ccc(Cl)c(S(=O)(=O)N2CCOCC2)c1
 : 1%	-6	-23	-6	-4.4	-21%
CC1=C(C(=O)Nc2ccccc2C(=O)NC2CCCCC2)SCCO1
 : 5%	-4	-15	-5	-2.6	37%
CCCCOc1ccc(CSc2nc(C)[nH]c2[N+](=O)[O-])cc1[N+](=O)[O-]
 : -26%	-13	-6	-15	-3.1	-6%[15.4 µM]
CCn1c(N)nc2ccccc21
 : -5%	-1	-3	5	-2.0	9%
Cc1ccc(CN2CC(C(=O)NCCC3=CCCCC3)CC2=O)cc1 (stereo not drawn)
 : 4%	16	-3	-2	-3.0	-16%
Cc1[nH]c2ccccc2c1C(=O)Cn1c(=O)oc2ccccc21
 : -16%	-2	-17	0	1.4	?
CCCn1c(C)cs/c1=N\C(=S)Nc1ccccc1
 : 11%	10	-6	18	0.4	-73%[inhibitor]
O=C(c1cc(F)c(F)c(F)c1F)N1CCN(C(=O)C2CCCO2)CC1 (stereo not drawn)
 : -18%	3	-23	0	2.7	-24%[15.4 µM]
O=C(COC(=O)c1ccccc1)NC1CCCCCC1
 : 5%	-9	-5	-4	-6.5	38%
CCN(CC)C(=O)Cn1c(C)c(/C=C/c2cc[n+](C)cc2)c2ccccc21
 : ?	19	-8	0	-1.1	-2%
CC(Oc1cc(F)ccc1[N+](=O)[O-])C(=O)Nc1ccc(S(=O)(=O)N2CCCC2)cc1 (stereo not drawn)
 : -7%	-17	-17	nt	-3.0	14%
O=C(c1ccccc1)c1ccc(N2CCCC2)cc1
 : -18%	30	0	37	-2.1	17%
O=C(NC1CCN(S(=O)(=O)c2ccccc2F)CC1)c1ccco1
 : 12%	0	3	4	-2.3	-3%[15.4 µM]
CC(C)C(=O)NC(=S)Nc1ccccc1N1CCN(C(=O)c2ccc(Cl)cc2)CC1
 : -25%	-4	-6	-9	-2.5	20%
Cc1ccc(S(=O)(=O)Cc2ccc(C(=O)N3CCC(C)CC3)cc2)cc1
 : 6%	14	-15	-4	-0.6	6%[15.4 µM]
N#Cc1ccc(C(=O)CN2CCN(c3ccccc3)CC2)cc1
 : 6%	-1	-14	3	-1.7	-4%[15.4 µM]
COc1ccc(-c2cc(C(=O)N/N=C/c3sccc3C)c3ccccc3n2)c(OC)c1
 : -8%	-10	-20	-6	-4.5	4%
CCOC(=O)C1C(=O)NCC2CCCC21 (stereo not drawn)
 : -2%	10	-6	5	-0.5	?
CSc1nnc(CSCc2ccc(Cl)cc2Cl)n1-c1ccccc1
 : -21%	-1	5	1	0.3	-7%
CCC(Oc1ccccc1)C(=O)Nc1ccc(C)c(S(=O)(=O)N2CCOCC2)c1 (stereo not drawn)
 : -23%	2	-14	7	-3.2	13%[15.4 µM]
COc1ccc(CNC(=O)Oc2ccccc2)cc1Cl
 : 4%	1	-25	-2	0.8	10%
Cc1ccc(-c2nc3sc(C#N)c(N)n3c(=O)c2C#N)cc1
 : 0%	2	1	5	3.7	?
O=C(NC1CCCC1)C(c1ccncc1)N(C(=O)c1csnn1)C1CCCC1 (stereo not drawn)
 : 1%	3	-7	0	-3.9	-37%[inhibitor]
O=C1c2ccccc2C(=O)N1CCc1nc(-c2ccccn2)no1
 : 8%	-7	-16	-7	1.1	-7%
Cc1nc(SCC(=O)NCC2COc3ccccc3O2)c2c(C)c(C)sc2n1 (stereo not drawn)
 : -1%	-1	1	-3	-6.2	-13%[15.4 µM]
O=C(c1c[nH]c(C(=O)C(Cl)(Cl)Cl)c1)c1c(F)cccc1F
 : -4%	14	-1	3	-2.1	9%
O=C1OCCC1Sc1ncnc2sccc12 (stereo not drawn)
 : 13%	11	-1	4	-3.3	24%
COC(=O)C(NC(=O)c1ccccc1C(=O)O)c1ccc2ccccc2c1 (stereo not drawn)
 : 3%	10	-4	0	-3.9	-2%
O=[N+]([O-])c1ccccc1/C=N/Nc1nccnc1Cl
 : 14%	-2	-10	-2	-4.5	-3%
O=S(=O)(Nc1cccc(-c2ccc3nncn3n2)c1)c1cc(F)ccc1F
 : 1%	-13	11	11	1.6	37%
Cc1cccc2cc(COC(=O)C(C)C)c(=O)[nH]c12
 : -1%	4	-6	5	1.4	-53%[inhibitor]
O=C(Nc1ccc(Br)cc1)c1cccc(N2C(=O)C3C4CCC(C4)C3C2=O)c1 (stereo not drawn)
 : ?	5	1	2	1.8	-4%
N#CC(c1ccc(O)cc1)N1CCCCC1 (stereo not drawn)
 : -3%	1	-5	-5	-1.2	15%
Cc1ccc(C(=O)CCC(=O)OC(C)C(=O)NC2CCCCC2C)cc1 (stereo not drawn)
 : -2%	1	-1	-14	-3.5	38%
COCC1CCN(Cc2nc(-c3cccs3)no2)C1 (stereo not drawn)
 : -5%	1	-8	-3	-3.4	11%[15.4 µM]
O=C(NC1CCCc2ccccc21)c1cccc(S(=O)(=O)N2CCOCC2)c1 (stereo not drawn)
 : 1%	4	-19	nt	-5.3	3%

# Following part:
# Screens in order – gsp antagonist	Six1-Eya2 inh	D2 PAM	CtBP-E1A inh	D2 ag	gsp ag
C=CCn1c(SC(C)C(=O)Nc2ccc(Cl)cn2)nnc1C1CC1 (stereo not drawn)
 : -4%	6	6	-17	-3.6	3%[15.4 µM]
COc1cc(/C(C)=N/Nc2ccc(C(=O)O)cc2)cc(OC)c1OC
 : 3%	-2	7	6	-2.0	-3%
O=S(=O)(NCc1cccs1)c1cccc2cccnc12
 : -8%	0	-4	4	0.6	9%
Cc1cc(C)nc(/N=C(\NC(=O)C(C)(C)C)Nc2ccc(F)cc2)n1
 : 8%	5	-5	0	-0.6	-13%[15.4 µM]

# Screening data: PubChem BioAssay, National Center for Advancing Translational Sciences (NCATS)

# This is a random part of the collection; overall some 1.4% were active at least once.
